Source: PubChem
RanGTP-Impb inh = inhibitors of RanGTP-importin-beta interaction, primary screen, biochemical, FRET, CFP-Ran, YFP-importin-beta, homogeneous; Ran GTPase (GTP-bound) - importin-beta complex; cell-free CFP-Ran/YFP-importin-beta FRET ratio; inhibition, % (test concentration not listed); hit rate 1.1% among 300,000;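 active = most replicates above 15%; inconclusive = exactly half above 15%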;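 also: 0% = DMSO wells and 100% = Ran loaded with GDP instead of GTP; wells of about 40 µL received 100 nL stock; the first replicate is given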
LANA-H2B inh = blockers of LANA interaction with H2A/H2B – biochemical, FP readout, HTS, primary screen; hit rate 0.6% among 320,000; Protein LANA1 (Human herpesvirus 8 type P (isolate GK18)), Q9QR71; cell-free LANA-H2A/H2B peptide, fluorescence polarization; inhibition, % (no concentration beside the values); in the data active = inhibition mostly above about 10%, no sharp cut-off; inactive = mostly below about 6.7%;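 also: stock transfer was 7.5 nL into about 10 µL; 0% = median of vehicle wells and 100% = median of positive control wells; one replicate is shown; the record names a cut of 25% in any replicate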
Target sequence (Q9QR71 whole entry, looked up): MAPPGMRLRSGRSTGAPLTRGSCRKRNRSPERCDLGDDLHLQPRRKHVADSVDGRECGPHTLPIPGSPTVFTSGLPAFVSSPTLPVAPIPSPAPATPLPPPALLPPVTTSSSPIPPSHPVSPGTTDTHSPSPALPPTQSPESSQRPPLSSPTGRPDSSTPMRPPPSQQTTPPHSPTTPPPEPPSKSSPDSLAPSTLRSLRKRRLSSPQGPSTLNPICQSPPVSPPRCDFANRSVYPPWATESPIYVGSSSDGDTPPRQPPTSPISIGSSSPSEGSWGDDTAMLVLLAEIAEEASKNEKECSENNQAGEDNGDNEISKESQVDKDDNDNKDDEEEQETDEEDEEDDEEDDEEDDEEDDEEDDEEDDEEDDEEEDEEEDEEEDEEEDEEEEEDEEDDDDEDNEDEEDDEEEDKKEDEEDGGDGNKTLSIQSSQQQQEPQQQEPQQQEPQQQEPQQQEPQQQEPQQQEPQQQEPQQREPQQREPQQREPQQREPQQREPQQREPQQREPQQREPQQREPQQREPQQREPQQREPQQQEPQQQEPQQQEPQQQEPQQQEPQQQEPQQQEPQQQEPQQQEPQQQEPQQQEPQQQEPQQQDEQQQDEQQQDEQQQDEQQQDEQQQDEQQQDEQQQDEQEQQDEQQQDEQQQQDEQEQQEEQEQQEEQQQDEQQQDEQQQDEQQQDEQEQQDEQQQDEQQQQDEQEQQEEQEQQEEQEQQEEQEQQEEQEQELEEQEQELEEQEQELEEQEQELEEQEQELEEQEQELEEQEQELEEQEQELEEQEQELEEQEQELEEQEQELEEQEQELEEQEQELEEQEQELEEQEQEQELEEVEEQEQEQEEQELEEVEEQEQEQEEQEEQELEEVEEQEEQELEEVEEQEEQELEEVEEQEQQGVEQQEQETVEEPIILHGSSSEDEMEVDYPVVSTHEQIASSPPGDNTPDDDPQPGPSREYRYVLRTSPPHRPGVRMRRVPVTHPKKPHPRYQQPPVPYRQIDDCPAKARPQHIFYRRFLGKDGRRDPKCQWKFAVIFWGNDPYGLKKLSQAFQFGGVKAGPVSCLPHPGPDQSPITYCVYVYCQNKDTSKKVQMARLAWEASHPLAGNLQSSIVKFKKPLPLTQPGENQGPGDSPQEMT
T cruzi inh = inhibitors of intracellular T. cruzi growth, primary screen, luminescence, NIH3T3 host cells | T. cruzi beta-gal in NIH3T3, 90 h | inhibition, % (concentration not given with the values) | hit rate 1.4% among 300,000 | AID 1885, 2009;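 active = mean inhibition across valid replicates above about 55%, limit read from the data; inconclusive = mean below that limit but half or more replicates reach it; inactive = mean below it, under half of replicates reach it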;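 also: signal also drops with host cell toxicity which is not excluded here; 0% = plate median of DMSO wells and 100% = zero luminescence signal; higher percent means less beta-gal luminescence so fewer parasites; stock transfer was 50 nL into about 50 µL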
Beta2AR agonist = beta2AR agonists driving receptor internalization, primary screen, cell-based, FAP fluorogen, flow cytometry; Beta-2 adrenergic receptor (Homo sapiens), P07550; Am2.2-beta2AR cells; reference of the scale not given here; hit rate 0.43% among 340,000; response, % (concentration not given with the values);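 active = response above a set limit, near 3 SD of response in nonfluorescent compounds, cut at about 42% in these data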;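 also: stock transfer was 100 nL into about 11 µL; a reference agonist was the positive control; negative values mostly stem from fluorescent compounds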
UCH37 DUB inh = inhibitors of human UCH37 deubiquitinase, primary screen, biochemical, Ub-AMC cleavage, fluorescence; purified proteasome/UCH37; inhibition, % (no concentration beside the values); hit rate 0.33% among 330,000; AID 588478, 2011;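 active = mean of two replicates above 20%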;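 also: 0% = compound-free wells with enzyme and 100% = wells lacking proteasome; stock transfer was 100 nL into about 20 µL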
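Material: human UCH37 enzyme supplied as purified proteasome complex / Amount: 0.15 nM proteasome as dispensed / Buffer or medium: pH 7.4 Tris-HCl (50 mM) with ovalbumin, ATP-MgCl2, DTT / Times: preincubation 30 min, reaction 25 min, room temperature / Technique: AMC fluorescence from Ub-AMC cleavage, excitation 355 nm, emission 460 nm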
Bfl-1 A1 inh = caspase 3/7 activation in MEF A1-2A-BIM cells, primary screen, A1 inhibitor project, cell-based, luminescence, HTS | Caspase-Glo 3/7 luminescence, 3 h; percent of clofoctol response, vehicle zero | caspase activation, % (concentration not given with the values) | hit rate 0.066% among 330,000;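 active = over half of replicate activation scores above 10%, or exactly half above 10 with the replicate mean above 10; inconclusive = replicate mean below 10 yet half the replicates above 10; inactive = over half of replicates below 10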;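 also: wells of about 30 µL received 50 nL stock; many hits fall short of the cut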
Calb FLC = C. albicans growth inhibition with fluconazole, primary screen, CaCi-2 strain, Alamar Blue fluorescence; C. albicans CaCi-2 (fluconazole-resistant clinical isolate) + fluconazole, 48 h; growth inhibition, % (test concentration not listed); hit rate 0.57% among 300,000; AID 1979, 2009;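 active = most replicates above 75%; inconclusive = exactly half above 75%; inactive = most below 75%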;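 also: all wells also contain fluconazole at 8 µg/ml as a sub-toxic cotreatment; 0% = median of DMSO wells and 100% = median of geldanamycin control wells; wells of about 8 µL received 7.5 nL stock; the first replicate is given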
Beta apoptosis = inhibitors of cytokine-induced beta cell apoptosis, primary screen, luminescence. AID 435005, 2010. protection from apoptosis, % (test concentration not listed). hit rate 0.8% among 300,000. INS-1E cytokine-induced death, ATP luminescence, 48 h; percent of positive-control rescue, neutral wells zero;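 active = all replicates at 75% or more, or half of them and the mean; inconclusive = half reach 75% but not the mean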;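 also: 0% = cytokine-treated negative control wells and 100% = positive control rescue; higher means more ATP so stronger rescue from cytokine killing; wells of about 40 µL received 100 nL stock; the first replicate is given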
Active calls of the source: *; ? = inconclusive; . = no result given.

SMILES,RanGTP-Impb inh,LANA-H2B inh,T cruzi inh,Beta2AR agonist,UCH37 DUB inh,Bfl-1 A1 inh,Calb FLC,Beta apoptosis
Cc1ccc2cccc(NS(=O)(=O)c3ccccc3)c2n1,-4.0,-0.1,54,.,.,0.0,63,22
O=C(CNCc1cccnc1)Nc1cc(C(F)(F)F)ccc1N1CCOCC1,2.9,4.3,3,6,-0.1,-0.1,8,-7
COc1cccc(NC(=O)c2ccc(NC(=O)C3CC(=O)OC34CCCCC4)cc2)c1 (stereo not given),-2.2,2.6,9,15,5.3,0.9,-23,3
CCOC(=O)C1CCN(Cc2cnc(NC(=O)OC)s2)CC1,0.5,3.8,-12,18,1.5,0.3,-1,-3
CCc1ccc(C(=O)NNC(=O)CCC2CCCCC2)cc1,-2.2,-0.4,-17,3,2.4,-0.3,0,-1
CSc1ncccc1C(=O)OCC(=O)c1ccc[nH]1,.,-0.9,.,-1,3.5,-2.6,.,-3
Cc1ccc(NC(=O)CCSc2nnc(C)o2)cc1,0.7,-2.3,-6,6,.,-0.1,3,-5
O=C(NC1CCCC1)C1CCCN(S(=O)(=O)c2cnc[nH]2)C1 (stereo not given),?,1.1,-2,7,1.3,0.0,-4,-6
CC(=O)NC(C)c1cc(Cl)c2ccccc2c1O (stereo not given),.,-0.4,.,-10,-0.1,1.0,.,1
Cn1cc(Cl)c(C(=O)OCC(=O)c2ccccc2)n1,1.5,-3.0,-15,0,4.0,-1.6,-6,-1
CC1CCCCC1NC(=O)COC(=O)CNC(=O)c1cccc(F)c1 (stereo not given),3.9,8.6,-24,0,0.4,0.1,-23,-3
O=C(O)CCCn1cc(NC(=O)c2cc(F)c(F)cc2Cl)cn1,6.1,5.3,-1,9,4.8,0.5,5,-8
CSCCC1C(=O)OC2(C)CC(C)(C)NC(=S)N12 (stereo not given),-0.3,-2.1,-9,14,1.4,0.2,-2,.
CC(C)CCN1C(=O)C2(OCCCO2)c2cc(Cl)ccc21,6.9,1.2,4,-3,4.4,0.1,-7,-4
CC(=O)Nc1ccc(S(=O)(=O)N2CCN(C(=O)c3ncoc3-c3ccccc3C)CC2)cc1,5.8,-1.0,0,4,1.0,-0.5,0,2
O=C(NC(Cc1ccccc1)C(=O)O)C1CCCCC1 (stereo not given),2.5,1.0,-6,1,3.0,?,1,-4
CCOC(=O)C1=C(C)NC2=C(C(=O)CC(c3ccc(OC)c(OC)c3)C2)C1c1ccc(C)o1 (stereo not given),.,-7.0,.,10,.,-0.6,.,-5
O=C(N/N=C/c1cc([N+](=O)[O-])ccc1Cl)c1cc(-c2ccccc2)nc2ccccc12,1.2,0.2,-6,0,.,-0.1,3,1
Cc1nc2ncnn2c(N2CCN(C(c3ccccc3)c3ccccc3)CC2)c1C,-0.6,-2.0,45,6,5.2,0.0,22,9
CCOC(=O)C1(CC)NC(c2ccco2)C2C(=O)N(c3ccc(C)cc3)C(=O)C21 (stereo not given),-0.1,-3.5,3,13,3.9,-1.9,6,-3
CCc1ccc(CNC(=O)Cn2nc(-c3ccccc3)ccc2=O)cc1,-1.8,0.3,7,-7,4.0,0.2,-4,-3
Cn1c(=O)c(C(=O)COC(=O)c2cc(-c3ccco3)nc3ccccc23)c(N)n(Cc2ccccc2)c1=O,4.8,1.5,16,.,.,0.1,-4,1
O=C(O)c1cccc(S(=O)(=O)N2CCN(C(c3ccccc3)c3ccccc3)CC2)c1,.,-0.4,-7,3,-1.6,-0.5,1,-7
Nc1ccc2sc(N)nc2c1,.,-0.6,.,-4,0.0,-0.2,.,1
Cc1ccc(/C=C/C(=O)NC2=NCCS2)cc1,1.5,1.0,-4,-11,.,-8.3,3,-12
COc1ccccc1CN=c1c([N+](=O)[O-])nn(-c2ccc3c(c2)OCCO3)n1O,1.4,0.4,49,-5,-18,0.9,19,-1
COC(=O)CSc1nnc(-c2cccs2)n1-c1ccc(Cl)cc1,-3.3,-1.8,-12,6,0.7,0.0,9,-2
CCN(Cc1ccccc1)S(=O)(=O)CCNC(=O)c1ccccc1,-0.4,0.9,-10,1,.,0.1,6,-3
CCC(C(=O)Nc1cc(C(=O)Nc2cc(C)ccn2)ccc1Cl)c1ccccc1 (stereo not given),4.3,3.5,0,-10,1.0,-1.5,1,-23
[O-]/C(=C(\C(=S)Nc1ccc(Cl)cc1)[n+]1ccccc1)c1ccc(OC(F)F)cc1,-4.9,7.6,0,-1,1.5,0.3,-21,-6
COc1ccc(-c2nc(NC(=O)c3ccccc3)sc2-c2ccc([N+](=O)[O-])cc2)cc1,-51,-4.3,10,6,0.7,-0.8,17,3
CC1(C)CC(=O)C(C=Nc2ccc(NC3=C(C#N)C(=O)CC(C)(C)C3)cc2)=C(O)C1,-2.6,-1.5,-8,-8,4.6,0.2,-11,.
COc1ccc(NS(=O)(=O)c2cc(C(=O)N3CCN(C(C)=O)CC3)ccc2Cl)cc1,-0.3,0.6,5,0,0.4,0.2,-16,7
CCC/C=C1/CCCOC(C(=O)NCc2cc(C)n(C)n2)(C(F)(F)F)C1 (stereo not given),-1.0,-7.1,-2,0,1.3,0.1,-8,-2
CCc1c(C)[nH]c(C(=O)OCc2ccccc2)c1C,4.0,.,30,4,3.8,.,-3,.
CCC(C)NC(=O)C1CCC(CNS(=O)(=O)c2cccc3nsnc23)CC1 (stereo not given),1.9,-0.9,1,6,1.3,0.3,4,-1
CCC(CC)c1nnc(NC(=O)CCN2C(=O)c3ccccc3C2=O)s1,-0.1,0.1,4,-3,0.7,0.4,-5,-7
COc1ccc(C)cc1NC(=O)Cn1cnc2sc(C)c(S(=O)(=O)N3CCOCC3)c2c1=O,-1.7,1.6,-8,0,2.0,0.1,-6,-3
O=C(O)CC12CC3CC(C1)CC(n1ncc(NCc4ccccc4)c(Cl)c1=O)(C3)C2,2.3,-3.0,-11,-2,3.6,0.6,1,-1
COc1ccc(-c2cc(C(=O)Oc3ccc([N+](=O)[O-])cc3)c3ccccc3n2)cc1,0.6,3.2,-27,2,-263,-2.8,2,3
NCCCC[C@H]1CNC(=O)C(=O)N1CC1CCCCC1,0.6,3.1,-26,-1,3.5,0.5,5,2
O=C(c1cc(-c2ccc(Cl)cc2Cl)on1)N1CCCC1,-0.9,-8.1,3,-12,6.8,0.8,0,3
O=C(COC(=O)C12CC3CC(CC(Cl)(C3)C1)C2)N1CCCCC1,.,6.0,.,-9,-2.2,1.0,.,-6
CCOCCCNC(=O)Cc1ccc(-n2c(CC)nc3cccnc32)cc1,-0.5,-3.1,-5,0,-13,-1.0,1,-5
Cc1ccc(-c2cc3ccccc3nc2N2CCCC2)cc1,-3.4,-4.0,10,6,-13,-1.2,-31,4
CCC(C)c1ccccc1NC(=O)c1cccc(-n2cnnn2)c1 (stereo not given),.,-2.0,.,5,0.2,0.5,.,-1
CC1CCCC(NC(=O)c2n[nH]c(=O)c3ccccc23)C1C (stereo not given),0.5,2.6,-12,-8,1.8,-0.6,-1,6
C=CCNC(=O)Nc1ccc(F)cc1F,-2.3,-4.1,7,4,1.8,0.2,-3,2
CCOc1ccc2[nH]c3c(NCCOC)ncnc3c2c1,-0.2,3.3,5,3,-226,-0.8,14,2
N#Cc1ccc(S(=O)(=O)N2CCN(C(=O)[C@@H]3CCCN3C(=O)c3cccs3)CC2)cc1,.,2.3,.,-2,0.9,-0.9,.,-13
Cc1nn2c(=O)cc(CSc3ccccc3NC(=O)c3ccccc3)nc2s1,-0.9,-5.4,1,-3,2.7,0.0,1,0
O=C(CN1C(=O)S/C(=C\C=C\c2ccccc2)C1=O)NC1CCS(=O)(=O)C1 (stereo not given),-0.5,2.5,-7,-4,9.1,0.8,1,2
CCC(=C/c1sc2ccc3ccccc3c2[n+]1C)/C=C1\Sc2ccc3ccccc3c2N1C,-6.7,-19,66*,-20,.,-1.1,0,-1
COc1ccc(Nc2nc(N(C)c3ccccc3)nc(N)c2[N+](=O)[O-])cc1,2.9,4.7,24,0,-1.3,-0.7,4,1
O=S1(=O)CCOCCCN1Cc1ccc(Cl)cc1,-0.3,-5.6,-18,-1,2.9,0.6,-14,-4
COC(=O)[C@H](CCSC)NC(=O)Nc1ccc(C)cc1,6.8,-5.9,-4,1,0.6,1.1,5,-1
CC1=C(C(=O)OCC(C)C)C(c2ccsc2)C2=C(CCCC2=O)N1 (stereo not given),-1.6,-2.4,10,-2,-96,0.5,-4,-2
CN(C)CC(C)(C)CNC(=O)c1cc(=O)c2ccccc2o1,-0.2,1.2,-7,-8,3.2,0.2,-15,-7
CCN(C(=O)COC(=O)c1cnc(C)cn1)C1CCCCC1,-3.3,-6.3,-11,-2,7.4,0.5,-9,-1
COc1ccc(-c2cc(=O)c3ccccc3n2C)cc1,-3.0,0.0,0,1,0.4,-0.2,-1,-2

(more compounds)
SMILES,RanGTP-Impb inh,LANA-H2B inh,T cruzi inh,Beta2AR agonist,UCH37 DUB inh,Bfl-1 A1 inh,Calb FLC,Beta apoptosis
COc1cc(C(=O)NCC2CCCO2)ccc1OCc1ccc(Cl)cc1 (stereo not given),.,.,.,-2,5.5,0.0,.,-3
O=C(CNC(=O)c1cccs1)NCC(=O)OCc1ccc(F)cc1,10,1.2,-8,1,-1.5,-0.5,-14,-2
CC(C)(C#N)NC(=O)C1CCCN1S(=O)(=O)c1ccc2ccccc2c1 (stereo not given),1.8,-8.2,-2,-2,.,-0.8,-1,-5
O=C(N/N=C/c1ccco1)c1cc([N+](=O)[O-])cc([N+](=O)[O-])c1,-1.4,2.0,39,4,.,2.0,2,-5
COc1ccc(C(=O)OCC(=O)c2ccccc2)cc1S(=O)(=O)N1CCOCC1,4.6,-1.5,-7,0,1.1,-0.9,-4,-8
N#Cc1ccccc1Sc1ccccc1C(=O)Nc1ccccc1,-1.3,0.7,7,-2,4.6,0.2,-3,-9
CCOC(=O)c1sc(NC(=O)/C=C/c2ccc(F)cc2)nc1C,1.2,3.3,-20,6,-51,-0.8,-5,-6
COc1ccc(F)cc1CN1CCN(C(=O)CCC(=O)Nc2nnc(CC(C)C)s2)CC1,-3.6,-4.4,34,-5,-2.4,0.3,35,0
Cc1cccc(-c2nnc(SCC(=O)O)n2Cc2ccccc2)c1,-2.5,4.0,-11,2,.,0.8,-4,-5
